Choline anaer gr: growth inhibitors of anaerobic choline-fed gram-negatives, minimal medium, absorbance | Gram-negative bacterium anaerobic choline minimal medium; stronger effect = lower value; many inactives read as strong as hits in the columns shown | calls only | hit rate 0.2% among 55,000 | AID 1963822, 2024;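 active = growth z-score on choline under -2 at 7 or 20 h with little or no fall on glycerol, limits in tiers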;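 also: stock transfer was 300 nL into about 50 µL; the organism is E. coli; final concentration not given here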
Choline anaer gr early: also measured in Choline anaer gr; calls as there; z-score; measured here: choline growth z-score, timepoint 1;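 score of optical density at 7 h as mean of two plates; lower means less growth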
* hit, by the source's call; i = inactive; & = joins results of further samples.

SMILES | Choline anaer gr | Choline anaer gr early
C[C@H]1C[C@H]2[C@@H]3CCC4=CC(=O)C=C[C@]4(C)[C@@]3(F)[C@@H](O)C[C@]2(C)[C@@]1(O)C(=O)CO | i | 0.26
CCOC(=O)c1cc(C2CC2)nc2c1c(=O)n(CCc1c(C)noc1C)c(=O)n2C | i | 0.02
Fc1ccc(Nc2ncnc3c2nc2n3CCCCC2)cc1Cl | i | 2.4
O=C(NC1CCS(=O)(=O)C1)c1ccc(Cn2c(SCc3ccc(Cl)cc3)nc3ccncc32)cc1 (stereo unspecified) | i | 0.11
O=C(O)Cc1cccc(OCCCN(Cc2cccc(C(F)(F)F)c2Cl)CC(c2ccccc2)c2ccccc2)c1 | i | 0.47
COc1ccc(CNC(=O)c2cccc(Oc3cc(-c4ccccc4)ncn3)c2)c(OC)c1 | i | 1.4
Cc1ccc(C(=O)O)cc1N1CCCC1=O | i | 0.41
CCCCC[C@H](O)/C=C/[C@@H]1[C@@H](CCCCCCC(=O)O)[C@H](O)C[C@@H]1O | i | -3.2
COc1ccccc1-c1cc2n(C)c(C)c(CCC(=O)NC3CCCC3)c(=O)n2n1 | i | 0.45
Cc1cc(C)cc(C(=O)N2CCN(c3nc(C)cc(N(C)C)n3)CC2)c1 | i | 1.4
Nc1nc2ccc(Cl)cc2n2c(-c3ccccc3)nnc12 | i | 0.42
Cc1cc(=O)[nH]c(Nc2ccc(N3CCCCC3)cc2)n1 | i | -0.76
CCCn1c(=O)c2ccccc2n2c(=O)n(CC(=O)NCc3ccc(C)cc3)nc12 | i | -0.49
Oc1cc(O)cc(/C=C/c2ccc(O)c(O)c2)c1 | i | 0.43&-0.65&-0.21
COc1ccc(NS(=O)(=O)c2cc3c(cc2C)NC(=O)CO3)cc1 | i | 0.03
O=C(COc1ccc(-c2nc(-c3ccccc3)no2)cc1)Nc1ccc(F)cc1 | i | 0.16
Cc1ccc(-c2nc(-c3ccc4c(c3)[nH]c(=O)c(=O)n4C(C)C)no2)cc1F | i | -0.91
COc1ccc(-c2cnc3c(-c4ccccc4)cnn3c2N)cc1OC | i | 1.9
CC(C)c1ccc(-c2noc(N3CCC(C(=O)N4CCOCC4)CC3)n2)cc1 | i | -0.58
CCOc1ccc(-c2n[nH]c3c2cnc2ccc(C)cc23)cc1 | i | 0.57
CC(=O)NCCNC(=O)c1cccc(Nc2nn3c(=O)c4ccccc4nc3s2)c1 | i | 1.2
CC1CSc2ccc(S(=O)(=O)CCC(=O)NC3CC3)cc2NC1=O (stereo unspecified) | i | -0.26
Cn1c(=O)c2c(nc3n2CC(=O)N(CCc2ccccc2)C3)n(C)c1=O | i | 0.97
CC(=O)N1CCCc2cc(S(=O)(=O)N3CCCC(C(=O)Nc4ccc5c(c4)OCO5)C3)ccc21 (stereo unspecified) | i | 0.56
CC(O)c1nc2ccccc2n1Cc1c(F)cccc1Cl (stereo unspecified) | i | 0.64

Remaining list, next part
SMILES | Choline anaer gr | Choline anaer gr early
Cc1noc(-c2cccnc2NCc2ccccc2)n1 | i | -1.2
CC(C)Cn1c(=O)c(-c2ccc(C(=O)NCC3CCCO3)cc2)nc2ccccc21 (stereo unspecified) | i | -0.37
O=C(NCCC1=CCCCC1)c1cc2n(n1)CCCN(Cc1cccc(F)c1)C2=O | i | -1.5
O=C(NC1CCN(c2ncnc3c2CCC3)C1)c1ccsc1 (stereo unspecified) | i | 0.02
CC(C)Cn1c(=O)c2sccc2n2c(CCC(=O)NC3CCCCC3)nnc12 | i | -0.73
CCC(C)NC(=O)c1ccc(CN2CCCn3nc(C)cc32)cc1 (stereo unspecified) | i | -0.04
CCCNC(=O)N1Cc2c(sc3c2CCN(CC)C3)-n2cccc2C1c1ccc(C)cc1 (stereo unspecified) | i | -0.17
O=C(NCc1ccccc1)c1cnn2c(C(F)(F)F)cc(-c3ccc(Br)cc3)nc12 | i | -0.11
COc1ccc(NC(=O)Nc2ccccc2SCC2=NNC(=O)c3ccccc3O2)cc1OC | i | -0.23
CCCCC/C=C\C/C=C\C/C=C\C/C=C\CCCC(=O)O[C@@H](CO)COCCCCCCCCCCCCCCCC | i | 0.34
CCOC(=O)c1ccccc1NC(=O)Cn1nc(-c2ccc(OC)cc2)c2c(C)onc2c1=O | i | 0.59
CNC(C)(C)c1nnnn1-c1ccccc1C | i | -1.3
CCC(C)NC(=O)C1CCN(c2nc(C(C)C)nc3csc(C)c23)CC1 (stereo unspecified) | i | 0.44
O=C(Nc1cccc2cccnc12)c1ccccc1F | i | 0.82
O=S(=O)(c1cn(Cc2noc(Cc3ccc(Br)cc3)n2)cn1)N1CCOCC1 | i | -0.42
CC1=C(C(=O)Nc2ccc(C(=O)NCCc3ccc(S(N)(=O)=O)cc3)cc2)SCCO1 | i | 0.96
Cn1c(=O)n(CCN2CCCCC2)c(=O)c2c1nc1n2CCCN1c1ccc(Br)cc1 | i | 0.83
COc1cc(CN2CCCC2c2c(C)noc2C)ccc1OC(C)C (stereo unspecified) | i | 1.3
Cc1ccc(-c2cc3n(n2)CCCNC3)o1 | i | -1.4
O=S(=O)(Cc1ccccc1)N1CCCC1c1ccc(Cl)cc1 (stereo unspecified) | i | -0.13
O=C(CN1C(=O)c2cccnc2Sc2ccccc21)NCc1ccccn1 | i | -0.62
COc1ccc(S(=O)(=O)Nc2cc3c(cc2Oc2ccccc2)n(C)c(=O)c(=O)n3C)cc1OC | i | 0.47
O=C(C1CCCC1)N1CCC(c2nc(-c3ccc(Cl)cc3)no2)CC1 | i | -1.2
Cc1cc(C)c2c(c1)[C@H]1OCC[C@H]1C(c1cc(O)ccc1Br)N2 (stereo partly specified) | i | 1.6
Cc1cccc(Nc2nc(C)c3nc(C)n(-c4cccc(C)c4)c3n2)c1 | i | 0.59

(more compounds)
SMILES | Choline anaer gr | Choline anaer gr early
Cc1noc2c1C(c1cccc(Cl)c1)C1=C(CC(c3ccccc3)CC1=O)N2 (stereo unspecified) | i | -0.85
CCN(Cc1cc(=O)n2ccsc2n1)c1cccc(C)c1 | i | 0.52
CC(C)Cc1ccc(S(=O)(=O)c2c(C(=O)N3CCCCC3)cnc3ccccc23)cc1 | i | 0.57
CCCn1c(=O)oc2cc(NC(=O)Nc3ccc(C)c(Cl)c3)ccc21 | i | 1.5
CCc1nccn1Cc1noc(-c2ccco2)n1 | i | -0.22
O=C(CN1CCN(Cc2ccccc2Cl)S1(=O)=O)NCc1ccccc1Cl | i | 0.54
CC1=C(C(=O)OCC(C)C)C(c2ccccc2F)CC(=O)N1 (stereo unspecified) | i | 0.35
CC(=O)Nc1ccc(NC(=O)c2nn(C)c(C(F)(F)F)c2Cl)cc1 | i | -1.8
O=C(C1CC(c2ccc(Cl)cc2)=NO1)N1CCOCC1 (stereo unspecified) | i | 0.24
O=C(CCC(=O)N1CCc2cc(S(=O)(=O)Nc3ccc4c(c3)OCO4)ccc21)N1CCOCC1 | i | -0.24
O=C(CCSCc1cnn(-c2ccccc2)c1-n1cccc1)NCC1CCN(Cc2ccccc2F)CC1 | i | 0.1
O=C(NC1CCCCC1)C(Cc1ccccc1)NS(=O)(=O)c1cccc2cccnc12 (stereo unspecified) | i | 0.1
O=C(NCc1ccc(F)cc1)c1ccc(S(=O)(=O)c2ccccc2)nc1 | i | -0.4
O=C1Cc2c([nH]c3ccc(Br)cc23)-c2ccccc2N1 | i | -0.02&0.37
O=C(O)COc1ccc2c(=O)c(-c3ccccc3)coc2c1 | i | 0.56
O=C(Cn1nc(C(=O)Nc2ccccc2)ccc1=O)Nc1ccc2c(c1)OCCO2 | i | 0.41
CCOC(=O)c1cc2ccsc2n1CC(=O)Nc1cc(F)ccc1F | i | 0.09
Cc1cc(NS(=O)(=O)c2ccc3onc(C(=O)N4CCCC4)c3c2)ccc1Br | i | 0.77
CCOc1ccc2nc(N3CCC(C(=O)NCc4cccc(Cl)c4)CC3)sc2c1 | i | -1.1
O=C(NCCC1=CCCCC1)C1CCCN(c2ccnc(-c3ccc(F)cc3)n2)C1 (stereo unspecified) | i | 0.93
Cc1cc(C2CCCN2C(=O)NC(C)(C)C)no1 (stereo unspecified) | i | 0.86
CCCNC(=O)c1cccc(Oc2ccnc(-c3ccc(F)cc3)n2)c1 | i | 1.3
COc1cccc(Oc2nc3ccc(Cl)cc3n3cnnc23)c1 | i | 0.97
Cc1c(C(=O)N2CCN(c3ccccc3)CC2)oc2ccc3c(c12)C(O)CC(C)(C)O3 (stereo unspecified) | i | 0.13
Cn1c(SCc2ccc(F)cc2Cl)nc2c(=O)[nH]cnc21 | i | -0.49

13 entries from above, with tabs.
canonical_smiles	Choline anaer gr	Choline anaer gr early
Cc1noc2c1C(c1cccc(Cl)c1)C1=C(CC(c3ccccc3)CC1=O)N2 (stereo unspecified)	i	-0.85
CCN(Cc1cc(=O)n2ccsc2n1)c1cccc(C)c1	i	0.52
CC(C)Cc1ccc(S(=O)(=O)c2c(C(=O)N3CCCCC3)cnc3ccccc23)cc1	i	0.57
CCCn1c(=O)oc2cc(NC(=O)Nc3ccc(C)c(Cl)c3)ccc21	i	1.5
CCc1nccn1Cc1noc(-c2ccco2)n1	i	-0.22
O=C(CN1CCN(Cc2ccccc2Cl)S1(=O)=O)NCc1ccccc1Cl	i	0.54
CC1=C(C(=O)OCC(C)C)C(c2ccccc2F)CC(=O)N1 (stereo unspecified)	i	0.35
CC(=O)Nc1ccc(NC(=O)c2nn(C)c(C(F)(F)F)c2Cl)cc1	i	-1.8
O=C(C1CC(c2ccc(Cl)cc2)=NO1)N1CCOCC1 (stereo unspecified)	i	0.24
O=C(CCC(=O)N1CCc2cc(S(=O)(=O)Nc3ccc4c(c3)OCO4)ccc21)N1CCOCC1	i	-0.24
O=C(CCSCc1cnn(-c2ccccc2)c1-n1cccc1)NCC1CCN(Cc2ccccc2F)CC1	i	0.1
O=C(NC1CCCCC1)C(Cc1ccccc1)NS(=O)(=O)c1cccc2cccnc12 (stereo unspecified)	i	0.1
O=C(NCc1ccc(F)cc1)c1ccc(S(=O)(=O)c2ccccc2)nc1	i	-0.4

Other results
SMILES | Choline anaer gr | Choline anaer gr early
Cc1cc(C(=O)NCc2cccc(Cl)c2)c2ccccc2n1 | i | 0.47
O=C(O)c1ccc(N2CCN(c3cccc(Cl)c3)CC2)c(NS(=O)(=O)c2ccc(F)cc2)c1 | i | -0.32
Cc1ccc(Cn2c(CNC(=O)C3CC3)nc3cccnc32)cc1 | i | 0.83
CN(C)C(=O)c1ccc2c(c1)N(CC(=O)N(C)Cc1ccccc1)C(=O)CO2 | i | -0.84
COCCNC(=O)c1ccc2c(=O)n(-c3ccc(OC)cc3)c(SCC(=O)c3c[nH]c4ccccc34)nc2c1 | i | 3.6
CNC(=O)CN(C)C(=O)c1ccc(N2CCNCC2)c(NS(=O)(=O)c2cc(C)ccc2C)c1 | i | 0.43
Brc1ccc(C(c2nnc(-c3ccccc3)o2)N2CCN(c3ncccn3)CC2)cc1 (stereo unspecified) | i | 0.86
CCc1ccc(-c2ccc(=O)n(CCc3nc(-c4ccc(C)cc4)no3)n2)cc1 | i | 1.2
CCc1nc2nc(C)cc(N3CCN(c4ccccc4F)CC3)n2n1 | i | 0.14
CC(=O)N1CCC(c2nc(-c3ccc(CNC(=O)C4CC4)s3)no2)CC1 | i | -0.26
COc1ccccc1NC(=O)Cn1c(=O)n(-c2ccc(CC(=O)NC(C)C)cc2)c(=O)c2ccccc21 | i | 0.93
O=C(NC1CCCCC1)c1nc(-c2ccc(S(=O)(=O)N3CCCC3)cc2)no1 | i | 0.29
O=C(NCc1ccccn1)c1nc[nH]c1C(=O)NCc1ccccc1 | i | -0.47
O=c1c(S(=O)(=O)c2cccc(F)c2)c[nH]c2c(F)cc(Cl)cc12 | i | 0.46
Cc1csc(NC(=O)CSc2nc3[nH]ncc3c(=O)[nH]2)n1 | i | -1.9
COC(=O)c1c(-c2cccc(Cl)c2)noc1Nc1ccc2c(c1)OCO2 | i | 1.3
Cc1ccc(-c2ccc(Nc3ccc(S(N)(=O)=O)cc3)nn2)cc1S(=O)(=O)N1CCCC1 | i | 1
CCCCn1c(SCC(=O)N2CCCC2)nc2cn(C)nc2c1=O | i | 0.1
CCOc1cccc(CNS(=O)(=O)c2cc(-c3nc(C(C)(C)C)cs3)cs2)c1 | i | 0.96
CC(C)CCNS(=O)(=O)c1ccc(-c2nc(C(C)C)cs2)s1 | i | -0.16
CCn1c(=O)c(N2CCC(NC(=O)Nc3ccc(OC)c(OC)c3)CC2)nc2ccccc21 | i | 1.6
CC1CCN(C(=O)CSc2nnc(COc3ccc(Cl)cc3)o2)CC1 | i | 1.3
Cc1c(C(=O)Nc2ccc(S(N)(=O)=O)cc2)nnn1-c1ccccc1Cl | i | -0.98
CC(C)c1ccc(NC(=O)CN2C=NS(=O)(=O)c3ccccc32)cc1 | i | -0.23
O=c1[nH]c2ccc(S(=O)(=O)NCCC3=CCCCC3)cc2[nH]1 | i | -0.63

Next section.
SMILES | Choline anaer gr | Choline anaer gr early
CCOc1ccc(-c2nonc2NC(=O)CC(C)C)cc1C | i | 0.67
O=C(NCc1ccccn1)c1cnc2sc(N3CCCCC3)nn2c1=O | i | -1.1
O=C(Nc1ccc(CCc2nc3ccccc3n2-c2ccccc2)cc1)c1ccncc1 | i | 0.31
CCn1c(C)ccc(-c2noc(CCC(=O)Nc3cccc(C)c3)n2)c1=O | i | -0.84
COCCNC(=O)CN1C(=O)CC(C)Sc2ccc(S(=O)(=O)N3CCCCC3)cc21 (stereo unspecified) | i | -0.8
CO[C@H]1/C=C/O[C@@]2(C)Oc3c(C)c(O)c4c(O)c(c5c(nc6cc(C)ccn65)c4c3C2=O)NC(=O)/C(C)=C\C=C\[C@H](C)[C@H](O)[C@@H](C)[C@@H](O)[C@@H](C)[C@H](OC(C)=O)[C@@H]1C | i | -2.7
COc1cccc(CNC(=O)c2cccc(NC(=O)N3CCCCc4ccccc43)c2)c1 | i | -0.17
CC(C)C(=O)N1CCc2c(c(C(=O)N3CCC(C(=O)NCCC4=CCCCC4)CC3)nn2C)C1 | i | -0.72
COc1ccc(C(=O)Nc2cccc3nsnc23)c(OC)c1 | i | 2.1
COc1ccc(NC(=O)CN2N=C(c3ccccc3)c3ccccc3S2(=O)=O)cc1 | i | 1.2

Compound activity: PubChem BioAssay, ICCB-Longwood Screening Facility, Harvard Medical School

A portion of the library; rates above refer to the full screens.
